Screening results deposited in PubChem BioAssay by National Center for Advancing Translational Sciences (NCATS).
VACV mCherry inh: qHTS for Stage-Specific Inhibitors of Vaccinia Orthopoxvirus: mCherry Reporter Primary qHTS. AID 720579, 2013. Vaccinia virus mCherry reporter infection, fluorescence; about a quarter of the inactives have no number. 0.63% of 310,000 active. Potency, µM (series often up to 36.5 µM), for inactives: at the top dose activity change, negative = inhibition, actives largely listed as inhibitors; active = well fitted inhibition curve with a large enough effect; inconclusive = small, poorly fitted or top-dose-only effect; inactive = no such curve, though single readings can be large or run the other way; tested in A549 cells; also: nearly all actives have a fitted effect of over 35% in size; inactives centre near -10
Vaccinia Venus: qHTS for Stage-Specific Inhibitors of Vaccinia Orthopoxvirus: Venus Reporter Primary qHTS; 0.46% of 330,000 active; Potency, µM (titrated, usually from 36.5 µM), for the others: at the highest dose activity change, negative = inhibition, actives largely listed as inhibitors; AID 720580, 2013; Vaccinia virus Venus reporter expression, fluorescence; active means well fitted inhibition curve with a large enough effect; inconclusive means small, poorly fitted or top-dose-only effect; inactive means no such curve, though single readings can be large or run the other way; tested in A549 cells; also: nearly all actives have a fitted effect of over 30% in size; inactives centre near -10
The depositor's hits bear a star; i = inactive; ? = inconclusive; / = not tested or not shown; & = joins results of further samples; [ ] = remark or other dose. % is scaled to controls: 0 for no effect and ±100 for the full control effect; potency is read from the fitted curve at half-maximal effect.

Start of the data: the first five compounds, ahead of the listing:
SMILES	VACV mCherry inh	Vaccinia Venus
COc1cccc(NC(=O)C2CCN(S(=O)(=O)c3cccc4nonc34)CC2)c1	-7%	-7%
Oc1ccc(NC(=S)Nc2ccc(O)cc2)cc1	-22%	-1%
CCn1c(SCC(=O)Nc2ccccc2OC)nc2ccccc2c1=O	-19%	-17%
O=C(O)C1CCCC2CN3CCc4c([nH]c5ccccc45)C3C(O)C21 (centres undefined)	i	10%
O=C(Nc1cc(=O)[nH]c2ncnn12)c1ccc(Cl)cc1Cl	/	8%

This part in full, from the start:
SMILES	VACV mCherry inh	Vaccinia Venus
COc1cccc(NC(=O)C2CCN(S(=O)(=O)c3cccc4nonc34)CC2)c1	-7%	-7%
Oc1ccc(NC(=S)Nc2ccc(O)cc2)cc1	-22%	-1%
CCn1c(SCC(=O)Nc2ccccc2OC)nc2ccccc2c1=O	-19%	-17%
O=C(O)C1CCCC2CN3CCc4c([nH]c5ccccc45)C3C(O)C21 (centres undefined)	i	10%
O=C(Nc1cc(=O)[nH]c2ncnn12)c1ccc(Cl)cc1Cl	/	8%
Cc1ccc(S(=O)(=O)Nc2ccc3c(c2)C(=O)c2ccccc2-3)cc1	16%	-2%
CN(Cc1ccco1)C(=O)CN1C(=O)NC(c2ccccc2)(c2ccccc2)C1=O	-19%	-1%
CCn1c(SCc2nc3sc(C(=O)O)c(C)c3c(=O)[nH]2)nnc1-c1ccc(Cl)cc1	i	1%
COc1ccc(NC(=O)CN(C)C(=O)c2ccc(-c3cccc(C(F)(F)F)c3)o2)cc1	-20%	-13%
O=C(C[n+]1ccc(-c2cc(C(=O)Nc3cccc(C(F)(F)F)c3)c3ccccc3n2)cc1)c1cccc([N+](=O)[O-])c1	-26%	2%
COCc1cc(C)nc(NCCc2ccccc2)c1C#N	/	-18%
OCC1OC(n2cnc3c(NCc4ccccc4O)ncnc32)C(O)C1O (centres undefined)	?	?
CCC(CC)C(=O)Nc1cc([N+](=O)[O-])ccc1F	-1%	2%
Cc1cccc(NC(=S)N/N=C2/CCCCc3ccccc32)c1	-5%	-17%
N=c1c[n+](CC23CC4CC(CC(C4)C2)C3)[n-]o1	/	-11%
CCC(C)(C)n1nnnc1C(c1ccccc1OC)N1CCSCC1 (centres undefined)	-3%	-19%
COC(=O)C1(C(=O)OC)C2C(=O)C3C(C21)C3(C(=O)OC(C)(C)C)C(=O)OC(C)(C)C (centres undefined)	i	-3%
CC1CCN(C(=O)COC(=O)CCC(=O)c2ccc(F)cc2)CC1	-10%	-13%
C/C(=N\NC(N)=S)C12CC3CC(CC(C3)C1)C2	11µM*	8.9µM*
COc1ccc(OC)c(S(=O)(=O)Nc2cnc3ccccc3c2)c1	-22%	-16%
O=c1[nH]c(N2CCN(c3ccccc3)CC2)nc2c1CCC2	/	-7%
O=S(=O)(c1cc(Cl)cc(Cl)c1)N1CCN(c2nc(-c3cccs3)nc3ccccc23)CC1	-12%	-1%
COc1ccc2cc(C(=O)N3CCN(Cc4ccc5c(c4)OCO5)CC3)[nH]c2c1	i	-21%
COC(=O)[C@@]12C[C@@H](CC(=O)NCc3cccc(C(F)(F)F)c3)C(=O)N(Cc3ccc4c(c3)OCO4)C1=CCC(C)(C)C2	?	?
COc1ccc(CC(=O)NCC(c2cccs2)S(=O)(=O)c2ccc(F)cc2)cc1 (centres undefined)	-11%	-9%

3 records drawn at random from the list so far, as already listed:
SMILES	VACV mCherry inh	Vaccinia Venus
O=C(Nc1cc(=O)[nH]c2ncnn12)c1ccc(Cl)cc1Cl	/	8%
O=c1[nH]c(N2CCN(c3ccccc3)CC2)nc2c1CCC2	/	-7%
CC1CCN(C(=O)COC(=O)CCC(=O)c2ccc(F)cc2)CC1	-10%	-13%

(continued)
SMILES	VACV mCherry inh	Vaccinia Venus
N#Cc1c(NC(=S)NC(=O)c2ccccc2)sc2c1CCC2	-15%	-4%
O=C(Nc1cc(Cl)ccc1Cl)c1cc([N+](=O)[O-])cc(Br)c1O	-9%	-22%
O=C(COc1ccc2c3c(c(=O)oc2c1)CCC3)N1CCN(c2ccc(F)cc2)CC1	29%[7.34 µM]	40%[activator][7.34 µM]
COC(=O)c1cc(Br)c(=O)n(CC(C)C)c1	/	-5%
Cc1cccc(NC(=O)c2ccc(Cl)c(S(=O)(=O)N3CCCCC3)c2)n1	-1%	-13%
O=C(COC(=O)/C=C/c1ccccc1)NC1CCCCCC1	-5%	-9%
CCCCCC(=O)N1C[C@H](n2cc(-c3ccc(F)cc3)nn2)[C@@H](O)C[C@@H]1c1ccc(C)cc1	i	?
CCN1C(=O)CSC1=Nc1ccccc1Cl	i	-19%
O=C(Nc1ncc(Cc2cccc([N+](=O)[O-])c2)s1)c1ccco1	i	?
Cc1cc(C)c(NC(=O)COc2ccc(-n3cnnn3)cc2)c(C)c1	i	-9%
CCn1c(/C=C/N(C)c2ccccc2)[n+](CC)c2ccc(Cl)cc21	-28%	-30%
O=C1CSC(c2ccccn2)N1c1ccccc1F (centres undefined)	-5%	10%
O=C1CCC(C(=O)N(CCO)Cc2ccccc2)CN1CCc1cccc(F)c1 (centres undefined)	i	5%
O=C(CCOc1ccccc1)NO	-9%	-4%
CC1(c2ccccc2)NC(=O)N(CC(=O)N2CCN(S(=O)(=O)c3c(F)cccc3F)CC2)C1=O (centres undefined)	-10%	-22%
CCCCN(C(=O)Cc1coc2cc(C)c(C)cc12)c1c(N)n(Cc2ccccc2)c(=O)[nH]c1=O	i	-13%
CCOC(=O)c1c(C)[nH]c(C(=O)OC(C)C(=O)NC2(C#N)CCCCC2)c1C (centres undefined)	i	-19%
CCn1nnnc1SCC(=O)c1cc(Cl)ccc1OC	-2%	-5%
CCNC(=O)C1(C)CCN(C(=O)c2cc(F)cc(F)c2)C1 (centres undefined)	5%	-7%
O=C(CN1C(=O)c2ccccc2C1=O)NCC1COc2ccccc2O1 (centres undefined)	-10%	-2%
CCOC(=O)Cc1csc(NS(=O)(=O)c2ccc3ccccc3c2)n1	i	-14%
CC(C)Cn1nnc2c(=O)oc3ccccc3c21	-2%	-7%
O=C(NCCCN1CCN(c2ccccc2F)CC1)C1COc2ccccc2C1 (centres undefined)	-3%	-15%
COc1ccc(OC)c(/C=C/C(=O)Nc2cccc(S(=O)(=O)N3CCCC3)c2)c1	-12%	?
CC(NC(=O)NCc1cccnc1)(C(F)(F)F)C(F)(F)F	/	-20%
The list goes on.
SMILES	VACV mCherry inh	Vaccinia Venus
O=C(NC1CCCC1)C1c2ccccc2OCC(=O)N1Cc1ccccn1 (centres undefined)	32%[activator]	15%
CC(=O)NC12CC3CC(C1)CC(C(=O)N1CCN(S(=O)(=O)c4cccc(C(F)(F)F)c4)CC1)(C3)C2	-23%	-21%
N/C(=N/S(=O)(=O)c1ccccc1)c1cccc([N+](=O)[O-])c1	4%	0%
CSc1nnc(Cn2c(=O)sc3ccccc32)n1C	-5%	0%
CC(=O)c1cccc(Nc2ccc(Br)cc2)c1	13%	-5%
COc1ccc(NS(=O)(=O)c2ccc(OCC(=O)N3CCCC3)cc2)cc1	-10%	-10%
Cc1ccccc1NC1C=CS(=O)(=O)C1 (centres undefined)	6%	13%
CC[C@@]1(C(=O)OC)N[C@H](CN(C)C(C)=O)[C@@H]2C(=O)N(C)C(=O)[C@@H]21	-12%	15%
COc1ccc(NC(=O)c2nnn(Cc3nc(-c4cc(OC)c(OC)c(OC)c4)oc3C)c2C)cc1Cl	-8%	-14%
Cc1ccc(CSC2=Nc3ccccc3C3=NC(CC(=O)NC4CCCCC4)C(=O)N23)c(C)c1 (centres undefined)	i	-8%
CCCNS(=O)(=O)c1ccc(OCC(=O)NCC2CCCO2)cc1 (centres undefined)	-11%	2%
Cc1noc(C)c1COC(=O)COc1ccc(-c2ccccc2)cc1	i	-4%
Cc1ccc(C(C)C)c(OC(C)C(=O)NCC2(N(C)C)CCCCC2)c1 (centres undefined)	-18%	-14%
CC(c1ccccc1F)n1cc(C(=O)NCCCn2ccnc2)nn1 (centres undefined)	/	-12%
CCOc1cc(C(=O)Nc2ccc(-c3nnc4n3CCCCC4)cc2)cc(OCC)c1OCC	-6%	-5%
NC(=O)CCN1CCN(S(=O)(=O)/C=C/c2ccccc2)CC1	-2%	-17%
S=c1[nH]nc(NC2CCCCC2)s1	-15%	-10%
COCCNC(=S)N/N=C(\C)CCc1ccc2c(c1)OCO2	-3%	-7%
COCCNC(=O)C(c1ccc(C)o1)N(Cc1ccco1)C(=O)c1snc(C(N)=O)c1N (centres undefined)	?	?
COc1ccc(OC)c2c(C)ccnc12	-5%	-16%
CC(C)c1ccc(OCC(=O)Nc2c(C(=O)c3ccc(F)cc3)oc3ccccc23)cc1	3%	-5%
Cc1cc(C)cc(N(CCC#N)C(=O)COC(=O)c2ccc(OCc3c(C)noc3C)cc2)c1	-3%	-13%
O=P(NC(c1ccccc1)c1ccccc1)(Oc1ccccc1)Oc1ccccc1	-17%	-18%
COC(=O)c1ccc(NC(=O)CCN2C(=O)CSC2=O)cc1	-5%	-8%
O=C(NCC1CCCO1)c1ccc2c(=O)n(Cc3cccc(Br)c3)c(=S)[nH]c2c1 (centres undefined)	-10%	11%

Sorted by SMILES length (largest number first): some entries from above
SMILES	VACV mCherry inh	Vaccinia Venus
O=C(C[n+]1ccc(-c2cc(C(=O)Nc3cccc(C(F)(F)F)c3)c3ccccc3n2)cc1)c1cccc([N+](=O)[O-])c1	-26%	2%
COc1ccc(CC(=O)NCC(c2cccs2)S(=O)(=O)c2ccc(F)cc2)cc1 (centres undefined)	-11%	-9%
Cc1ccc(C(C)C)c(OC(C)C(=O)NCC2(N(C)C)CCCCC2)c1 (centres undefined)	-18%	-14%
OCC1OC(n2cnc3c(NCc4ccccc4O)ncnc32)C(O)C1O (centres undefined)	?	?
COc1ccc(OC)c(S(=O)(=O)Nc2cnc3ccccc3c2)c1	-22%	-16%
CSc1nnc(Cn2c(=O)sc3ccccc32)n1C	-5%	0%
Oc1ccc(NC(=S)Nc2ccc(O)cc2)cc1	-22%	-1%

Further entries follow.
SMILES	VACV mCherry inh	Vaccinia Venus
COC(=O)C1=CN(c2ccc(OC)cc2)C=C(C(=O)OC)C1c1ccc([N+](=O)[O-])cc1	i	-18%
COC(=O)CSc1nnc(CNS(=O)(=O)c2ccc(Cl)cc2)n1C	-9%	-7%
CCOc1ccc(NC(=O)CSc2nc(C)cc(C)n2)cc1	-20%	-14%
Cc1ccc(C)c(Nc2nc3c(S(=O)(=O)c4ccc(C(C)C)cc4)nnn3c3ccsc23)c1	-28%	-27%
O=c1[nH]c(=S)[nH]c(O)c1C(c1ccccn1)c1c(O)[nH]c(=S)[nH]c1=O	i	-2%
CCC(CC)C(=O)NCCc1ccc(OC)c(OC)c1	-14%	-17%
CCc1ccc(NS(=O)(=O)c2ccc3[nH]cc(C(=O)N4CCCCCC4)c(=O)c3c2)cc1	-3%	5%
CCc1ccc(C(=O)NNC(=S)Nc2ccc(S(N)(=O)=O)cc2)s1	8%	2%
COc1ccc(C=O)cc1COc1ccc([N+](=O)[O-])c(C)c1	-3%	-7%
CCCN1CCN(CC2=C(C(=O)OCC)C(c3ccc(Cl)cc3)NC(=O)N2)CC1 (centres undefined)	-25%	-11%
CC(C)(C)OC(=O)N[C@@H](Cc1ccccc1)C(=O)N1CCC(C(=O)NCC(=O)O)CC1	-11%	5%
Cc1onc(-c2ccccc2Cl)c1-c1nc(-c2ccccn2)no1	-16%	-28%
COc1ccc(C(=O)Nc2ccc(C(=O)Nc3cccc(C)c3)cc2)cc1	i	-14%
Cc1ccc(-c2cc(C(F)(F)F)c(C#N)c(SCCC#N)n2)o1	-2%	-16%
CCCc1[nH]nc2c1C(C1CC=CCC1)C(C#N)=C(N)O2 (centres undefined)	-1%	-24%
CCOC(=O)c1c(C)[nH]c(CCC(=O)Nc2cc(C)cc(C)c2)c1C	-5%	-10%
O=C(OCCN1CCCCC1)c1c[nH]c2ccccc12	-10%&-9%	-10%&-3%
C/C(N)=C(/C#N)C(=O)CSc1nnnn1-c1ccccc1	-18%	-9%
CCCCC(=O)Nc1cccc(NC(=S)NC(=O)COc2ccccc2Cl)c1	-19%	-7%
COc1cc(CN(C(=O)COc2ccc(Br)cc2)c2ccccn2)cc(OC)c1OC	-22%	-11%
CCOC(=O)c1cccc(NC(=O)c2ccc3c(c2)OCO3)c1	-22%	-26%
COc1ccc(N2CCN(Cc3nc4c(c(=O)n(C)c(=O)n4C)n3C(C)C(C)=O)CC2)cc1 (centres undefined)	-15%	-20%
Cc1ccccc1OCC(=O)Nc1sc2c(c1C(=O)OC(C)C)CCCC2	-3%	3%
CCN(CC)S(=O)(=O)c1ccc(/C=C/C(=O)OCC(=O)NCc2ccco2)cc1	-2%	-7%
O=C(Nc1ccc(F)c(Cl)c1)C1CCN(C(=O)c2ccc(F)cc2)CC1	-5%	-4%
Cc1ccc(S(=O)(=O)Nc2nc3ccc(S(C)(=O)=O)cc3s2)cc1	-17%	-1%
CCOC(=O)c1c(NC(=O)CSc2nnnn2-c2ccc3c(c2)OCO3)sc(C)c1C	i	-1%
COc1cc(/C=C/C(=O)O)cc(S(=O)(=O)N2CCc3ccccc32)c1OC	i	-8%

A second format for 2 compounds above:
| Molecule | VACV mCherry inh | Vaccinia Venus |
| --- | --- | --- |
| CCOc1ccc(NC(=O)CSc2nc(C)cc(C)n2)cc1 | -20% | -14% |
| CCc1ccc(C(=O)NNC(=S)Nc2ccc(S(N)(=O)=O)cc2)s1 | 8% | 2% |
